HNF4A DNA FP = change in binding of human HNF4 alpha to DNA | P41235 | HNF4a-FITC DNA binding, fluorescence polarization, 1 h | activity change, % at 10 µM | hit rate 0.3% among 360,000; in the data active = activity change above about 30%, passing the limit was not always enough;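 also: controls were the assay level and a saturating level of protein; the project sought stronger binding though the title names inhibitors; some compounds called inactive have numbers as strong as hits; positive values seem to mean higher polarization but the record does not say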
Target sequence (P41235 whole entry, looked up): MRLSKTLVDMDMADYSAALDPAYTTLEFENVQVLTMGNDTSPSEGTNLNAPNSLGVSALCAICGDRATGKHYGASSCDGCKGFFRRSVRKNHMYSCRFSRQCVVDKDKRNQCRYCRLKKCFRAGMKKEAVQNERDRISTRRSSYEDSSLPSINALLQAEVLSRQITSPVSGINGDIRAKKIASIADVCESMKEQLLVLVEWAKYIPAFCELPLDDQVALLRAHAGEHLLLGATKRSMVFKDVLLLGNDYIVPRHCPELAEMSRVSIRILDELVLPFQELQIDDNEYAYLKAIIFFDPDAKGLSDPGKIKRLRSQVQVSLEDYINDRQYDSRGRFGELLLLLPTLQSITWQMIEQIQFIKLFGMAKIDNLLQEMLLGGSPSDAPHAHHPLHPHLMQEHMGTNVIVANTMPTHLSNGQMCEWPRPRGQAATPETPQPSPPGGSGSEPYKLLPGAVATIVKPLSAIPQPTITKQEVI
ALR H2O2 inh = blocks human ALR sulfhydryl oxidase activity; P55789; purified ALR, DTT oxidation, H2O2 HRP-luminol luminescence; inhibition, % (no concentration beside the values); hit rate 3.8% among 290,000;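 active = mean and each replicate at 75% or more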;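 also: stock transfer was 7.5 nL into about 7.5 µL; 0% = neutral wells and 100% = wells with inactivated enzyme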
B2AR ag = agonists of human beta-2 adrenergic receptor inducing internalization; AID 504454; response, % (test concentration not listed); hit rate 0.43% among 340,000; Am2.2-beta2AR cells, FAP receptor internalization, flow cytometry; reference of the scale not given here;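 active = response above a set limit, near 3 SD of response in nonfluorescent compounds, cut at about 42% in these data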;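 also: stock transfer was 100 nL into about 11 µL; a reference agonist was the positive control; negative values mostly stem from fluorescent compounds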
UCH37 inh = inhibitors of human deubiquitinating enzyme UCH37. AID 588478. inhibition, % (test concentration not listed). hit rate 0.33% among 330,000. Q9Y5K5. purified proteasome/UCH37, Ub-AMC cleavage fluorescence;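 active = mean of two replicates above 20%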;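 also: 0% = compound-free wells with enzyme and 100% = wells lacking proteasome; stock transfer was 100 nL into about 20 µL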
Target sequence (Q9Y5K5 whole entry, looked up): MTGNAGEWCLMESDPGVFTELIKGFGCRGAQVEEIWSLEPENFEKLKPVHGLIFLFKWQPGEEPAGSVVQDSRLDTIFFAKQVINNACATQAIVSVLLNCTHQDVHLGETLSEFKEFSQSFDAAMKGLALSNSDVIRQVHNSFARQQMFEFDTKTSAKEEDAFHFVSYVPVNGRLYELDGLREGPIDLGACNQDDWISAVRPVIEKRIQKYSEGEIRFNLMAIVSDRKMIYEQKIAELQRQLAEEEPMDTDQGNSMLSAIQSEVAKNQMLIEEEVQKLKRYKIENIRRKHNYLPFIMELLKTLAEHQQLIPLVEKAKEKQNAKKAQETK
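Signal – fluorescence, ex 355 nm, em 460 nm · System – Proteasome-bound UCH37 · Input – 0.15 nM proteasome as dispensed · Timing – 30 min preincubation with enzyme, 25 min cleavage at room temperature · Read-out basis – percent inhibition of cleavage signal versus uninhibited and no-proteasome wells · Medium – Tris-HCl pH 7.4 with ATP-MgCl2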
LANA-H2A inh = blocks KSHV LANA binding to histone H2A/H2B; hit rate 0.6% among 320,000; cell-free LANA-H2A/H2B peptide, fluorescence polarization; inhibition, % (concentration not given with the values); in the data active = inhibition mostly above about 10%, no sharp cut-off; inactive = mostly below about 6.7%;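 also: stock transfer was 7.5 nL into about 10 µL; 0% = median of vehicle wells and 100% = median of positive control wells; one replicate is shown; the record names a cut of 25% in any replicate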
E coli growth = inhibitors of Escherichia coli growth; AID 1053175; OD600, 23 h; active compounds read low; hit rate 0.21% among 330,000; OD600 absorbance (no concentration beside the values);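 active = OD600 absorbance below the run mean of sample wells minus 3.6 SD, in any replicate, cut at about 0.56 in these data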;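 also: stock transfer was 300 nL into about 60 µL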
FGF22 binding = FGF22 (human) thermal shift binding | Q9HCT0 | recombinant FGF22 thermal shift, SYPRO orange fluorescence; percent of sucrose octasulfate shift, DMSO zero | calls only at 9.99 µM | hit rate 1.5% among 340,000 | AID 651658;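 active = melting point raised past a set limit in the mean and every replicate; three in four hits are not shown here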
Target sequence (Q9HCT0 whole entry, looked up): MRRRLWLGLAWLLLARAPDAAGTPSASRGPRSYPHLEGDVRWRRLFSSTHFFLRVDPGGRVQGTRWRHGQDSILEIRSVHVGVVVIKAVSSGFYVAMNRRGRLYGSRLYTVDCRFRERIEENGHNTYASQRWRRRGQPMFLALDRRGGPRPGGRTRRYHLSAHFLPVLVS
The depositor's hits bear a star; i = inactive; . = no result given. This is a subset. The share of hits here may be higher or lower than overall.

SMILES	HNF4A DNA FP	ALR H2O2 inh	B2AR ag	UCH37 inh	LANA-H2A inh	E coli growth	FGF22 binding
Cc1ccc(S(=O)(=O)NNC(=S)Nc2c(Cl)cccc2Cl)cc1	-1.1	11.6	2.6	0.9	0.0	0.703	i
COc1ccccc1S(=O)(=O)Cc1ccc(C(=O)NCC(OC)OC)o1	-0.5	-10.7	-8.9	6.0	2.3	0.65	i
Clc1cccc(C2CCN(Cc3nc(COc4ccccc4)no3)C2)c1 (stereo unspecified)	-4.1	-4.0	1.8	0.1	-3.9	0.73	i
COc1cc(C2C(C(=O)c3cccs3)=C(O)C(=O)N2Cc2ccco2)cc(OC)c1OC (stereo unspecified)	3.1	1.7	-7.9	0.1	-2.1	0.77	.
CCn1cc(C(=O)NCCc2ccc(OC)c(OC)c2)c(=O)c2cc(S(=O)(=O)N3CCOCC3)ccc21	2.7	-3.1	-4.1	7.4	-2.5	0.681	i
Cc1cccc(N2CCN(CC(=O)Nc3ccc(S(=O)(=O)N4CCOCC4)cc3)CC2)c1C	-3.0	3.3	11.8	3.8	4.4	0.748	i
O=C(C(=O)N1CCN(c2ccccc2F)CC1)c1cn(CC(=O)N2CCOCC2)c2ccccc12	-1.7	-21.5	-0.7	6.9	-2.3	0.691	i
CC(=O)c1cc(CN2CCC(n3nccc3NC(=O)c3ccccc3C)CC2)cs1	0.8	-0.7	4.8	1.7	1.8	0.718	i
O=C(Cc1ccc2c(c1)OCCO2)N/N=C/c1ccco1	-0.1	13.3	-4.1	.	0.5	.	i
O=C(CCC(=O)OCC(=O)c1ccc([N+](=O)[O-])cc1)NC1CCCCC1	2.2	80.0*	2.2	0.2	2.1	0.7	.
CCN(C[C@H]1N[C@@](Cc2ccccc2)(C(=O)OC)[C@H]2C(=O)N(C)C(=O)[C@@H]12)S(=O)(=O)c1ccc(OC(F)(F)F)cc1	-0.8	.	-1.0	4.5	-0.6	0.678	i
COCC(=O)N(C)C1(c2nnnn2CCOC(=O)Nc2ccc(Cl)cc2)CCCC1	-0.9	-7.1	0.1	0.2	9.0	0.646	.
O=C(NCc1cccnc1)c1ccc(-c2cccc(Cl)c2Cl)o1	8.0	.	-1.9	2.7	-2.0	0.619	i
CC1CC(C)CN(C(=O)COC(=O)Cc2ccc(Br)cc2)C1 (stereo unspecified)	2.5	.	-6.1	0.7	-5.1	0.669	i
COc1ccc(-c2cc(CNS(=O)(=O)c3ccccc3)on2)cc1	3.9	-20.2	-3.1	0.7	4.2	0.691	i
COc1ccc(N2CCN(C(=O)c3ccc(CS(=O)(=O)c4ccccc4C)o3)CC2)cc1	-2.0	20.3	0.9	6.3	-0.9	0.713	i
O=C(Nc1c(C(=O)C2CC2)oc2ccccc12)c1ccc(Cl)cc1	-1.1	-6.9	13.4	-114.2	3.3	0.704	.
Cn1c(N)c(C(=O)COC(=O)C2(c3ccc(Cl)cc3)CCCC2)c(=O)n(C)c1=O	0.1	0.0	7.2	0.2	2.4	0.768	.
CCOc1cc(C=O)cc(Br)c1OCC(N)=O	5.2	0.3	4.3	-1.1	-0.4	0.712	i
COc1ccc(CNC(=O)CN=C2NC(=O)C(c3ccccc3)(c3ccccc3)N2)cc1	1.9	14.7	10.7	3.1	1.7	0.659	.
CCO/N=C/c1ccc(OC)c(Oc2nc(OC)cc(OC)n2)c1	4.6	43.6	-1.7	.	4.5	.	i
CC(C)(C#CCN1CCCC1)OCCC#N	-0.8	-10.5	1.9	2.4	1.2	0.668	.
COc1cccc(S(=O)(=O)N2CCOCC2)c1	-0.4	-3.0	8.7	4.2	0.3	0.706	.
CCC1([N+](=O)[O-])COC(c2ccc(Cl)cc2)OC1 (stereo unspecified)	-3.0	.	0.7	2.5	.	0.644	i
c1cncc(CNC2CCCc3ccccc32)c1 (stereo unspecified)	-0.9	-49.9	16.1	0.8	-2.2	0.655	.
Next part
SMILES	HNF4A DNA FP	ALR H2O2 inh	B2AR ag	UCH37 inh	LANA-H2A inh	E coli growth	FGF22 binding
c1ccc(-n2cc(CN3CCC(N4CCOCC4)CC3)c(-c3ccc4c(c3)OCO4)n2)cc1	-2.2	-6.8	2.3	0.7	-3.7	0.652	i
COc1ccc(-c2[nH]ncc2CNCCn2cccn2)c(F)c1	-0.7	.	-10.0	.	-3.0	.	i
COc1ccc(/C=C2\SC(=S)N(CCCC(=O)NC3CCCC3)C2=O)cc1OC	3.1	.	1.6	1.3	6.6	0.741	i
CC(OC(=O)CSc1ccc([N+](=O)[O-])cc1)C(=O)NC1CC1 (stereo unspecified)	2.1	0.4	-3.3	6.6	-10.8	0.635	i
COc1cc(C(=O)Nc2cccc(S(=O)(=O)N3CCCC3)c2)cc(OC)c1C	0.4	-0.7	0.9	2.2	1.1	0.68	i
Cc1nc2nc(CNC(=O)OC(C)(C)C)nn2c(C)c1CCC(=O)Nc1ccc2c(c1)OCO2	3.5	-7.1	6.4	-2.9	7.8	0.646	i
N#CC(C(=O)NC1CC1)c1nc2ccccc2nc1N1CCN(C/C=C/c2ccccc2)CC1 (stereo unspecified)	-17.8	-2.6	1.2	-7.7	-8.3	0.777	.
COc1cccc(S(=O)(=O)Nc2ccc(C(=O)NCc3ccco3)cc2)c1	-1.9	4.9	-6.0	3.2	2.1	0.713	.
Cc1ccnc(NC(=O)c2ccc(S(=O)(=O)NCc3ccco3)cc2)c1	0.5	-5.5	-6.8	-0.9	-1.4	0.713	i
O=C(Cn1cc2c(n1)CCCC2)NC1CCN(Cc2ccccc2)CC1	5.3	-9.2	4.2	3.8	-3.3	0.741	i
CCSc1nnc(-c2ccncc2)n1Cc1ccccc1	-3.7	-2.8	10.3	2.0	-2.7	0.661	.
NC(=O)CSc1nc2scc(-c3ccc(Cl)cc3)c2c(=O)n1Cc1ccccc1	-2.8	-3.2	3.8	4.7	-4.2	0.731	.
O=C(c1cccc(O)c1)N1CCN(C(=O)C2CC2)CC1	-1.5	.	-2.0	0.9	-2.5	0.702	i
COc1cc2[nH]c(=O)n(CCCCCC(=O)NCCCN3CCC(C)CC3)c(=O)c2cc1OC	-2.6	-4.9	-1.6	-12.3	7.9	0.726	.
O=C(CCCCl)NC(=S)Nc1ccc(N2CCOCC2)cc1	-0.1	.	-7.1	2.6	-0.7	0.692	.
Cc1occc1-c1nnc(SCC(=O)Nc2c(F)cccc2F)n1C	0.2	0.7	4.7	4.4	4.7	0.704	i
Nc1nnnn1/N=C/c1ccc(O)cc1	-0.1	95.7*	0.4	.	2.9	.	.
O=C(NC1CC2CCC(C1)N2Cc1nnnn1Cc1ccco1)NC12CC3CC(CC(C3)C1)C2 (stereo unspecified)	0.8	79.7*	13.4	2.4	1.7	0.686	.
Brc1c(CSc2nncc3ccccc23)nc2ccccn12	-3.6	.	-5.7	4.5	2.9	0.669	i
CCN1CCN(c2ccc(NC(=O)c3cccnc3)cc2Cl)CC1	0.0	-8.0	-7.5	3.2	1.1	0.715	.
COc1ccccc1/C=C(/C(=O)OCC(=O)Nc1ccc(N(C)C)cc1)c1ccccc1	-0.8	.	12.9	2.1	5.2	0.723	.
Cc1ccc(C)c(NS(=O)(=O)c2ccc3c(c2)NC(=O)CCS3)c1	1.5	-8.3	2.1	0.7	1.1	0.719	i
COc1cc(CN2CCNC(=O)C2CC(=O)N(C)CCN2CCOCC2)cc(OC)c1 (stereo unspecified)	1.1	.	-15.9	3.8	.	0.688	i
O=C(NNC(=O)c1cnccc1C(F)(F)F)c1cccc(Cl)c1	1.4	4.1	3.6	5.4	2.1	0.702	i
O=C(COC(=O)Cc1ccc(Cl)cc1)Nc1ccc(OC(F)F)cc1	-0.9	2.1	-2.4	0.6	1.7	0.645	.
(cont.)
SMILES	HNF4A DNA FP	ALR H2O2 inh	B2AR ag	UCH37 inh	LANA-H2A inh	E coli growth	FGF22 binding
CN(C)CCn1c2c(c(SCC(=O)Nc3ccccc3)nc1=O)CCCC2	-1.0	47.0	-1.6	3.5	-2.7	0.709	i
COc1ccc(CNC(=O)CN(CCC(C)C)S(=O)(=O)c2ccc3c(c2)OCCO3)cc1	2.4	1.1	-4.5	0.8	-3.4	0.701	i
CN(C(=O)COc1ccc(Cl)cc1Cl)c1nnc(C23CC4CC(CC(C4)C2)C3)s1	-2.6	.	2.2	3.8	8.3	0.701	i
O=C1c2ccccc2S(=O)(=O)N1CC1CC(c2ccccc2)=NO1 (stereo unspecified)	0.7	-13.6	-4.4	0.0	2.6	0.676	.
CC[C@@]12C(=O)N(c3cccc(Cl)c3)C(=O)N1[C@H](c1ccc(Br)cc1)[C@@H]1C(=O)N(C(C)(C)C)C(=O)[C@@H]12	-3.7	.	4.0	-2.4	3.2	.	i
C=CCN(Cc1cc(OC)ccc1OC)C(=O)c1cc2ccc(OC)cc2[nH]1	0.4	-5.9	2.9	0.3	-2.1	0.692	i
O=C(CC(c1ccccc1)c1ccccc1)N1CCN(c2ccccn2)CC1	6.0	-60.9	6.4	-1.0	1.9	0.7	i
O=C(c1c[nH]c2ccc(S(=O)(=O)N3CCOCC3)cc2c1=O)N1CCN(c2ccccn2)CC1	0.5	.	3.5	-4.4	.	0.738	.
O=C(CN1CCC(n2nnc3cc(C(F)(F)F)ccc32)CC1)Nc1ccc2c(c1)OCCO2	0.1	.	-11.1	-1.8	2.5	0.716	.
COc1ccccc1CN(CC(=O)NCc1ccc(F)cc1)C(=O)c1csnn1	-4.8	-0.5	-3.9	.	5.0	.	i
S=C(NCC1CCCO1)Nc1ccc(Nc2ccccc2)cc1 (stereo unspecified)	-5.6	98.8*	-16.4	3.0	-2.3	0.683	i
O=C(Nc1ccnn1C1CCN(C(=O)c2cccc(C(F)(F)F)c2)CC1)C1CC1	0.6	-9.6	-0.3	0.3	16.5*	0.709	i
CCOC(=O)c1cncc(C#CCO)c1	2.1	-2.0	6.2	5.1	-1.4	0.667	i
COc1cc(CN2CCc3ccccc3C2)cc([N+](=O)[O-])c1O	6.1	4.2	7.6	2.9	1.5	0.64	i
Cc1nn(Cc2ccc(Cl)cc2)c(C)c1NC(=O)c1cc(C(C)C)on1	-0.6	.	8.7	0.7	0.8	0.692	i
O=C(NCCO)N1c2ccccc2Sc2ccccc21	1.6	1.0	1.6	1.2	-2.5	0.642	i
CCN(C(=O)COC(=O)c1cc([N+](=O)[O-])ccc1N1CCOCC1)C1CCS(=O)(=O)C1 (stereo unspecified)	-0.3	3.3	-5.7	6.2	1.8	0.692	i
CC1CCCC1/C(=N/O)c1ccccc1 (stereo unspecified)	0.7	2.0	-2.9	.	1.3	.	i
CCN=C1SC(C(=O)NCCc2ccccc2)CC(=O)N1CC (stereo unspecified)	1.0	-1.6	1.5	4.5	2.9	0.703	.
COC(=O)c1c(-c2ccc(C)cc2)csc1NC(=S)NC(=O)c1cc(OC)cc(OC)c1	-0.3	-1.7	1.0	5.8	-1.8	0.61	.
S=C(Nc1ccc(Cl)cc1)NC1CC2CCCC(C1)N2C1CCCC1 (stereo unspecified)	0.4	-1.7	13.1	1.9	1.3	0.632	.
O=c1[nH]cc(S(=O)(=O)N2CCN(c3cccc(Cl)c3)CC2)c(=O)[nH]1	-1.8	-5.1	-3.8	-0.5	3.1	0.659	i
CC(=O)NCC(=O)NC1CC(C)(C)Cc2c1cnn2-c1ccccc1 (stereo unspecified)	-4.3	2.2	-0.8	1.9	1.1	0.707	i
COc1ccc(NC(=O)NC2(C(=O)N3CCN4CCCC4C3)CCCCC2)cc1 (stereo unspecified)	0.1	3.3	1.5	1.6	-0.2	0.662	i
O=C(Cn1nc(-c2nn(CC(=O)c3ccccc3)c3[n+]2CCCCC3)[n+]2c1CCCCC2)c1ccccc1	4.0	5.3	3.5	3.1	0.3	0.704	i
CCN1CCN(C(=O)c2sc3nc(C)nc(N4CCC(C)CC4)c3c2C)CC1	-0.9	-8.4	3.2	-0.7	1.2	0.706	.
C/C(N)=C(/C#N)C(=O)CSc1ccccc1F	1.0	1.2	-1.8	4.9	0.9	.	i
COc1ccc(CNCc2c(F)cccc2F)cc1OC	1.4	-4.1	-1.2	2.7	0.7	0.663	i

Some entries already given, limited to UCH37 inh:
| molecule | UCH37 inh |
| --- | --- |
| COc1ccc(/C=C2\SC(=S)N(CCCC(=O)NC3CCCC3)C2=O)cc1OC | 1.3 |
| O=C(COC(=O)Cc1ccc(Cl)cc1)Nc1ccc(OC(F)F)cc1 | 0.6 |
